PrP 5UTR inh = suppresses PrP 5' UTR mRNA reporter expression. cell-based PrP 5' UTR mRNA reporter, plate reader. inhibition, % (concentration not given with the values). 0.35% of 340,000 active;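 active = every replicate at 50% or more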;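 note: 0 = median of the neutral control wells; tested in H4 reporter cells; numbers are from one replicate; inactives centre near -14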
Mtb hypoxia inh = Mtb hypoxia fluorescent reporter inhibition; AID 1159583; M. tuberculosis hypoxia-regulated fluorescent reporter, fluorescence; fluorescence inhibition, % (test concentration not listed); 0.1% of 300,000 active;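 active = 35 to 45% if threefold the growth effect, above 45% if 1.5-fold the growth effect; inactive = the rest, general growth blockers included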;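 note: wells of about 50 µL received 100 nL stock; 0% = vehicle wells and 100% = reference inhibitor wells; whole bacteria with a GFP reporter of the hypoxia response; strong numbers were not always called active; many hits fall short of the cut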
ugtP null kill = kills S. aureus RN4220 lacking UgtP; AID 1259309; S. aureus RN4220 ugtP deletion, OD600 growth, 16 h; some inactives read as strong as hits; growth inhibition, % (test concentration not listed); 0.54% of 330,000 active;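 active = z-score under -3 and OD600 up to 0.15 on both plates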;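 note: plate controls were untreated wells for no effect and antibiotic for full effect; wells of about 80 µL received 100 nL stock; the first replicate is given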
Autofluor counter = counter-screen for toxin protease inhibitors: compound fluorescence | fluorescence intensity (no concentration beside the values) | 3.1% of 360,000 active | compound autofluorescence counterscreen, microsphere flow cytometry; hits give high values;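 active = at least 3 SD above the mean of all compounds, about 16000 in these data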;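 note: 100 nL of 1 mM stock went into each well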
Sa RN4220 lethal = kills Staphylococcus aureus RN4220. 0.33% of 330,000 active. AID 1259311. S. aureus RN4220 growth, OD600, 16 h. inhibition, % (no concentration beside the values);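 active = z-score of -3 or lower and OD600 up to 0.18 on both plates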;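 note: plate controls were untreated cells for no effect and reference antibiotic for full effect; stock transfer was 100 nL into about 80 µL; one replicate is shown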
BJeLR viability = kills HRASV12-expressing BJeLR cells. 0.17% of 300,000 active. BJeLR (HRASV12) viability, CellTiter-Glo ATP luminescence, 48 h; reference of the scale not given here. inhibition, % (no concentration beside the values);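 active = replicate mean above 50%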;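 note: 50 nL library stock added to about 25 µL; numbers are from one replicate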
Mtb hypoxia inh growth = recorded beside Mtb hypoxia inh, whose call it bears; growth inhibition, %; measured here: M. tuberculosis growth (absorbance);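 0% = vehicle and 100% = reference antibiotic; read after six days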
The depositor's hits bear a star; x = no result given.

Order of values – Mtb hypoxia inh growth	BJeLR viability	Sa RN4220 lethal	Mtb hypoxia inh	Autofluor counter	ugtP null kill	PrP 5UTR inh
Cc1ccc(NC(=O)c2cc(S(=O)(=O)N3CCc4ccccc43)cn2C)cc1C
→ 4	0	-2.4	5	6437	-10	-17
N#CCCNC(=O)CCN1CCCCC1
→ x	-3	-0.1	x	2010	5	-9
CCCCOc1ccc(C(=O)N/C(=C\c2ccc([N+](=O)[O-])cc2)C(=O)OCc2ccco2)cc1
→ 4	x	3.4	-1	2548	-5	-23
Cc1ccc2oc(C(=O)N3CCCCCC3)c(C)c2c1
→ 9	2	-1.4	14	6162	14	-58
CCOC(=O)CN1CC23C=CC(O2)C(C(=O)Nc2ccc4c(c2)OCO4)C3C1=O (stereo not drawn)
→ 14	0	-12	2	5159	-2	-9
COc1cccc(N2CC(O)Cn3c2nc2c3c(=O)n(CCCc3ccccc3)c(=O)n2C)c1 (stereo not drawn)
→ 13	3	17	-3	3308	6	3
CCOC(=O)Cc1ccc(NCc2ccc(Cl)cc2)cc1
→ -1	3	9.8	9	3132	3	-19
O=C(NCC(O)CN1CCOCC1)c1ccc([N+](=O)[O-])cc1 (stereo not drawn)
→ -1	10	-1.1	2	2556	0	-14
CSc1ccc(NC(=O)N2CCN(c3nc4ccccc4s3)CC2)cc1
→ 19	6	5.6	6	21539*	-3	-19
COC(=O)NC1CC2C3CCC4CC(OC)CC[C@]4(C)C3CC[C@]12C (stereo partly drawn)
→ 0	x	-6.7	18	x	-1	x
O=C(CN1CCN(c2ccccc2O)CC1)NNC(=O)c1ccc(Cl)cc1
→ 11	7	3.8	9	2025	-1	-30
Clc1ccccc1COc1ccccc1-c1nnco1
→ 2	-4	4.8	6	3753	2	-3
COc1cccc(CC(=O)OCC(=O)c2cc(OC)ccc2OC)c1
→ 2	x	1.8	-2	3924	-1	-11
Cc1cc(C)c(C#N)c(SCC(=O)C2CC2)n1
→ 4	-2	5.8	5	x	0	x
CCOC(=O)c1ccc(-c2ccc(C=NNC(=O)CN(c3ccccc3Br)S(C)(=O)=O)o2)cc1
→ 8	x	36	13	x	20	x
Cc1ccc2oc(=O)n(CC(=O)OC(C)C)c2c1
→ 7	2	4.7	7	2338	-3	-7
Cc1ccc(C(=O)COC(=O)c2ccccc2NC(=O)c2ccccc2)cc1[N+](=O)[O-]
→ 8	3	1.5	10	2119	-13	-10
CC(C)Nc1nc(NC(C)C)nc(N(C)C#N)n1
→ 3	-11	0.5	5	15085	-1	-8
Oc1cc2c(cc1CN1CCN(c3ccccc3)CC1)OCO2
→ 11	1	-1.4	3	5829	15	-22
COc1ccccc1NC(=O)CSc1nnc(CNC(=O)c2ccccc2F)o1
→ 14	-7	-0.5	4	5644	1	-11

Brought forward from above: 2 entries, followed by the next part.
Order of values – Mtb hypoxia inh growth	BJeLR viability	Sa RN4220 lethal	Mtb hypoxia inh	Autofluor counter	ugtP null kill	PrP 5UTR inh
Oc1cc2c(cc1CN1CCN(c3ccccc3)CC1)OCO2
→ 11	1	-1.4	3	5829	15	-22
COc1ccccc1NC(=O)CSc1nnc(CNC(=O)c2ccccc2F)o1
→ 14	-7	-0.5	4	5644	1	-11
O=c1c2cccnc2nc2n1CCCCC2
→ -1	-4	4.9	11	3152	3	-14
CCC(=O)Nc1ccc(-c2nnc(SCC(=O)NCC3CCCO3)n2C)cc1 (stereo not drawn)
→ 3	5	1.1	6	2559	2	-11
O=C1/C(=C/c2cccnc2)SC(=S)N1C1CCS(=O)(=O)C1 (stereo not drawn)
→ -2	-4	9.8	9	2748	9	-22
COc1cccc2c1C(=O)c1c(O)c3c(c(O)c1C2=O)C[C@@](O)(C(=O)CO)C[C@@H]3O[C@H]1C[C@H](N)[C@@H](O)[C@H](C)O1
→ x	74*	x	x	2915	x	75*
CCOc1cccc(N2C(=O)CC(NNC(=O)c3ccc(Br)o3)C2=O)c1 (stereo not drawn)
→ 3	11	-0.2	1	5696	0	-15
Cc1cc(=O)oc2cc(OC(=O)c3ccccc3)ccc12
→ x	3	3.8	x	5207	-6	-8
O=C(COC(=O)COc1ccccc1[N+](=O)[O-])Nc1ccc(S(=O)(=O)N2CCCCC2)cc1
→ 13	14	8.3	9	10032	-3	-22
O=C(C1CC=CC2CCN(Cc3ccc(Cl)c(Cl)c3)C(=O)C21)N1CCN(c2ccccc2)CC1 (stereo not drawn)
→ -2	x	-4.0	-4	x	-6	x
CN(C(=O)c1ccc(Oc2ccc([N+](=O)[O-])cc2)cc1)C1CCCCC1
→ 3	1	0.3	2	3323	-10	3
O=c1[nH]c(=O)n(C2OC(CO)C(O)C2O)cc1Br (stereo not drawn)
→ 0	-7	3.1	-6	3435	1	-7
O=C(OCc1cn(-c2ccc(Cl)c(Cl)c2)nn1)c1ccccc1
→ 1	7	2.7	3	10083	-3	-27
CC(C)(CO)NC(=O)CCCOc1ccc(Cl)cc1Cl
→ 10	x	4.9	6	9803	1	-36
CC[C@H]1C(O)C[C@H]2CCN3C(=O)CCC[C@H]1[C@H]23 (stereo partly drawn)
→ 0	x	2.6	5	3799	-2	24
C(=NN1CCN(c2ccccn2)CC1)c1cccc2ccccc12
→ 2	x	3.5	8	x	7	x
COc1c(C(=O)Nc2ccccc2N2CCOCC2)cc2ccccc2c1Br
→ 8	5	0.9	8	5801	12	-21
CCCC(=O)NC(Nc1c(C)n(C)n(-c2ccccc2)c1=O)C(Cl)(Cl)Cl (stereo not drawn)
→ 13	-16	1.0	-1	2140	3	-24
Cc1c(Cl)cccc1-n1c(SCC(=O)NCc2ccccc2Cl)nnc1-c1ccncc1
→ -1	-11	-3.6	-19	11823	-2	x
O=c1[nH]c2ccc(S(=O)(=O)N3CCN(c4ccccc4)CC3)cc2[nH]c1=O
→ 4	-5	1.0	5	6272	-10	-1
COc1ccccc1CNC(=O)c1ccc2c(=O)n3c(nc2c1)CCCCC3
→ 0	-1	1.8	5	5455	-5	-17
COc1cccc2cc(C(=O)C3=C(O)C(=O)N(CCN(C)C)C3c3ccc(F)cc3)oc12 (stereo not drawn)
→ 6	-7	4.5	6	9446	-1	-20

Following part
Order of values – Mtb hypoxia inh growth	BJeLR viability	Sa RN4220 lethal	Mtb hypoxia inh	Autofluor counter	ugtP null kill	PrP 5UTR inh
Cc1ccc(C(=O)N/C(=C/c2ccccc2)C(=O)NC(Cc2ccccc2)C(=O)O)cc1 (stereo not drawn)
→ -12	-6	3.9	-9	2526	5	-30
CC(=O)C1C(c2ccccc2Cl)NC(=O)NC1(O)C(F)(F)F (stereo not drawn)
→ -7	3	0.2	-1	5520	6	6
CC(C)COc1ccc(C(O)=C2C(=O)C(=O)N(CCN(C)C)C2c2ccncc2)cc1 (stereo not drawn)
→ 15	x	2.5	14	x	0	x
Cc1ccc(C=NNC(=O)c2cc(-c3ccc(C)o3)[nH]n2)cc1
→ 5	x	1.8	12	x	0	x
C=CCn1c(SCC(=O)N2CCOCC2)nc2sc3c(c2c1=O)CCCC3
→ 5	4	2.7	3	4748	4	-12
Cc1ccc(S(=O)(=O)N2CCC(C(=O)OC(C)C(=O)NC3CCCCC3C)CC2)cc1C (stereo not drawn)
→ 2	x	1.0	4	3645	1	-15
N#Cc1c(SCC(N)=O)nsc1SCc1ccccc1Cl
→ x	2	-1.2	x	2156	5	10
CON=Cc1ccc(N2CCN(C(=O)c3ccc(C)cc3)CC2)c([N+](=O)[O-])c1
→ 14	x	6.0	4	x	3	x
Cc1cc(NC(=O)c2cncc(Br)c2)ccc1NC(=O)c1cc2ccccc2o1
→ 5	4	0.8	11	5062	1	8
CC(C)n1c(-c2cccnc2)nc2cnccc21
→ 5	-3	4.7	14	4167	5	-2
Clc1ccc(-c2nnc(-c3ccccc3)o2)c(Cl)c1
→ 16	9	8.5	17	9453	-1	6
Cc1cc(C)c(C(=O)CC(=O)c2ccccc2Cl)c(O)c1
→ 1	-6	-5.4	6	3372	22	-10
COCCn1c(SCC(=O)c2c(N)n(C)c(=O)n(C)c2=O)nc2ccccc21
→ 2	4	14	4	4372	6	-16
COC(=O)Nc1sccc1C(=O)Nc1sccc1C(=O)OC
→ -6	5	3.7	4	7544	8	-8
O=C(OCC(=O)N1CCC(Cc2ccccc2)CC1)c1cncc(Br)c1
→ 7	x	0.6	0	4375	-5	5
COc1cc(NC2c3ncccc3C(=O)N2Cc2ccco2)cc(OC)c1OC (stereo not drawn)
→ 5	-3	1.8	9	2103	3	6
COc1cccc(S(=O)(=O)N2CCN(Cc3ccc4c(c3)OCO4)CC2)c1
→ -5	4	-1.6	1	5757	-1	-20
O=C(NCCN1CCN(C(=O)c2cccc(OC(F)F)c2)CC1)c1cccc(OC(F)F)c1
→ 4	x	-4.7	8	4316	7	-19
C#CCOCCOCCOCCNc1nc(N2CCN(C(=O)[C@H](CCCCN)n3cc([C@@H](N)C(C)CC)nn3)CC2)nc(N2CCN(C(=O)[C@H](Cc3ccc(O)cc3)n3cc([C@@H](N)C(C)CC)nn3)CC2)n1 (stereo partly drawn)
→ x	-5	x	x	3771	x	-31
CCC(Cc1ccccc1)NS(=O)(=O)c1csc(C(N)=O)c1 (stereo not drawn)
→ -3	6	1.5	-4	4859	2	-10

Next section:
Order of values – Mtb hypoxia inh growth	BJeLR viability	Sa RN4220 lethal	Mtb hypoxia inh	Autofluor counter	ugtP null kill	PrP 5UTR inh
CC1C(=O)NN=C1C(=O)N/N=C/c1ccco1 (stereo not drawn)
→ x	2	x	x	4771	x	-29
CCOc1ccc(C(=O)NCC(=O)NCC(c2ccc(OC)cc2)N2CCOCC2)cc1OCC (stereo not drawn)
→ 0	-6	2.3	-10	6482	4	-15
N[C@@H](Cc1c[nH]c2ccccc12)c1nnc(SCc2c(F)cccc2Cl)o1
→ -7	1	0.7	-5	22753*	-6	-34
COC(=O)/C=C/CSC1=N/C(=C/c2ccc(-n3cncn3)cc2)C(=O)N1
→ x	9	-2.6	x	4297	0	-7

Reformatted with bars between the fields: entries from further up.
compound | Mtb hypoxia inh growth | BJeLR viability | Sa RN4220 lethal | Mtb hypoxia inh | Autofluor counter | ugtP null kill | PrP 5UTR inh
CC(C)n1c(-c2cccnc2)nc2cnccc21 | 5 | -3 | 4.7 | 14 | 4167 | 5 | -2
Clc1ccc(-c2nnc(-c3ccccc3)o2)c(Cl)c1 | 16 | 9 | 8.5 | 17 | 9453 | -1 | 6
Cc1cc(C)c(C(=O)CC(=O)c2ccccc2Cl)c(O)c1 | 1 | -6 | -5.4 | 6 | 3372 | 22 | -10
COCCn1c(SCC(=O)c2c(N)n(C)c(=O)n(C)c2=O)nc2ccccc21 | 2 | 4 | 14 | 4 | 4372 | 6 | -16
COC(=O)Nc1sccc1C(=O)Nc1sccc1C(=O)OC | -6 | 5 | 3.7 | 4 | 7544 | 8 | -8
O=C(OCC(=O)N1CCC(Cc2ccccc2)CC1)c1cncc(Br)c1 | 7 | x | 0.6 | 0 | 4375 | -5 | 5
COc1cc(NC2c3ncccc3C(=O)N2Cc2ccco2)cc(OC)c1OC (stereo not drawn) | 5 | -3 | 1.8 | 9 | 2103 | 3 | 6
COc1cccc(S(=O)(=O)N2CCN(Cc3ccc4c(c3)OCO4)CC2)c1 | -5 | 4 | -1.6 | 1 | 5757 | -1 | -20
O=C(NCCN1CCN(C(=O)c2cccc(OC(F)F)c2)CC1)c1cccc(OC(F)F)c1 | 4 | x | -4.7 | 8 | 4316 | 7 | -19
C#CCOCCOCCOCCNc1nc(N2CCN(C(=O)[C@H](CCCCN)n3cc([C@@H](N)C(C)CC)nn3)CC2)nc(N2CCN(C(=O)[C@H](Cc3ccc(O)cc3)n3cc([C@@H](N)C(C)CC)nn3)CC2)n1 (stereo partly drawn) | x | -5 | x | x | 3771 | x | -31
CCC(Cc1ccccc1)NS(=O)(=O)c1csc(C(N)=O)c1 (stereo not drawn) | -3 | 6 | 1.5 | -4 | 4859 | 2 | -10
CC1C(=O)NN=C1C(=O)N/N=C/c1ccco1 (stereo not drawn) | x | 2 | x | x | 4771 | x | -29
CCOc1ccc(C(=O)NCC(=O)NCC(c2ccc(OC)cc2)N2CCOCC2)cc1OCC (stereo not drawn) | 0 | -6 | 2.3 | -10 | 6482 | 4 | -15
N[C@@H](Cc1c[nH]c2ccccc12)c1nnc(SCc2c(F)cccc2Cl)o1 | -7 | 1 | 0.7 | -5 | 22753* | -6 | -34
COC(=O)/C=C/CSC1=N/C(=C/c2ccc(-n3cncn3)cc2)C(=O)N1 | x | 9 | -2.6 | x | 4297 | 0 | -7

From PubChem
